# High-throughput results from PubChem.
# NPYLR7 agonist – activates Aedes aegypti NPYLR7 receptor; activation, % at 10 µM; AID 1259423; actives 0.15% (n = 270,000); HEK293T NPYLR7/Galpha15, GCaMP6s calcium fluorescence; in the data active = activation above about 40%;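 note: 0% = vehicle and 100% = reference agonist at the receptor; some compounds past the cut are filed as inactive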
# NPYLR7 agonist max-min – recorded beside NPYLR7 agonist, whose call it bears; activation, %; measured here: Max-Min RFU normalised activation; some inactives read as strong as hits;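 span of the calcium signal over five minutes; 0% = vehicle and 100% = native peptide agonist; compound fluorescence can raise it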
# The depositor's hits bear a star; & = joins results of further samples. These rows are one share of the data. The share of hits here may be higher or lower than overall.
Compound | NPYLR7 agonist max-min | NPYLR7 agonist
O=C(Nc1ccc(-c2cscn2)cc1)C1CCCN(Cc2cccc3ncccc23)C1 (stereo not drawn) | 3.5 | 7.4
O=C(Nc1ccncc1)c1cc(Br)ccc1Cl | 1.9 | 2.3
Cc1c(C(=O)NCc2ccc3c(c2)OCO3)sc(=O)n1Cc1cccc(F)c1 | 3.1 | 14.8
CC(C)c1n[nH]c(=S)n1C1CCCCC1 | -6.5 | -8.6
NC1=NC(=O)C(CC(=O)Nc2ccc(C(F)(F)F)cc2)S1 (stereo not drawn) | -8.6 | -3.6
O=C(CN1CN(c2ccccc2)C2(CCN(C(=O)c3cccc([N+](=O)[O-])c3)CC2)C1=O)Nc1cccc(Cl)c1 | 8.1 | 3.1
CCCOc1cccc(C2CC(=O)Nc3c2c(C)nn3-c2ccc3nncn3n2)c1 (stereo not drawn) | -4.3 | -0.9
Cc1cccc(C(C(=O)NCc2cnc3c(C)cccn23)N(C)C)c1 (stereo not drawn) | 1.6 | -0.3
COc1cccc2ccc(CN3CCC4(CC3)C(=O)N(CCc3ccccc3)C(=O)N4C)nc12 | 3.9 | 11.9
COc1ccccc1N1CCN(C(=O)c2ccc(C)c(Oc3nc(Cc4ccc(F)cc4)ns3)c2)CC1 | 22.9 | 18.8
O=C(Oc1ccc2ccccc2c1)c1ccc([N+](=O)[O-])cc1Cl | 0.0 | 0.6
O=C(NCCC1=CCCCC1)c1cc(N2CCSCC2)nc2ccccc12 | 15.5 | 25.3
O=S(=O)(c1ccc(F)cc1)N1CCC(c2nc(C3CC3)n[nH]2)CC1 | 0.5 | 1.0
Cc1sc(NC(=O)Cn2nc([N+](=O)[O-])c(Br)c2C)c(C#N)c1C | -10.4 | -5.7
c1ccc(C(CN2CCCC2)Nc2ncnc3ccccc23)cc1 (stereo not drawn) | 19.2 | 20.9
CCc1nc(NC(=O)NCc2csc(-c3ccccc3)n2)nn1C | 3.1 | 4.4
COc1ccc(SC(C)C(=O)N2CCN3C(=O)OCC3C2)cc1 (stereo not drawn) | -0.3 | 0.2
O=C(NCCCC(=O)N1CCOC(COCc2cccc(C(F)(F)F)c2)C1)OCc1ccccc1 (stereo not drawn) | 21.1 | 9.4
COc1cc(OC)cc(C(=O)N2CCCC(OCc3ccccc3Cl)C2)c1 (stereo not drawn) | -3.9 | -10.3
C=CCn1c(=O)c2c(nc3n(CCCl)c(C)c(C)n23)n(C)c1=O | -9.6 | -6.2
COc1ccccc1CN(C(=O)Nc1ccccc1Cl)C1CC1 | 1.1 | 2.4
Cc1nnsc1CN(C)C(=O)c1nc(-c2ccccc2)cs1 | -3.3 | -2.5
CO[C@H]1CN(C(=O)Cc2cccs2)[C@H]2Cc3c(oc4ccccc34)[C@@H]1C2 | 9.0 | -0.7
O=[N+]([O-])c1ccc(Cl)c(C2c3cccn3CCCN2Cc2ccc(F)c(F)c2)c1 (stereo not drawn) | 35.5 | 30.6
CC(C)CC12CN3CCN(CC(C3)C1=N/N=C1/C3CN4CCN(C3)CC1(CC(C)C)C4)C2 | -14.9 | -9.8
CCCC(=O)Nc1ccc(C2=CSC3=NS(=O)(=O)CCN23)cc1 | -1.0 | 0.8
CC1CNC(=O)CCN1Cc1cnc(-c2cccc3ccccc23)nc1 (stereo not drawn) | 8.1 | 11.5
CC(C)c1nn(CC(=O)N(C(C)C)C(C)C)c(=O)c2c1cnn2-c1ccc(F)cc1 | 3.1 | 5.3
CCc1nc(N(CCC(=O)NCCOC)CCc2ccccc2)c2ccccc2n1 | 6.0 | -5.2
Cc1cc(C)cc(Nc2nc(NCCCO)nc3c2cnn3-c2ccccc2)c1 | -1.3 | 0.8

# Two records picked at random from those above:
Compound | NPYLR7 agonist max-min | NPYLR7 agonist
CC(C)c1n[nH]c(=S)n1C1CCCCC1 | -6.5 | -8.6
O=S(=O)(c1ccc(F)cc1)N1CCC(c2nc(C3CC3)n[nH]2)CC1 | 0.5 | 1.0

# Next section:
Compound | NPYLR7 agonist max-min | NPYLR7 agonist
Cc1nc(CC(=O)N2CCCC(O)(CN(C)C)CC2)cs1 (stereo not drawn) | 4.5 | 4.8
COC(=O)c1ccc2c(c1)CC(CNC(=O)c1ccc(Cl)nc1)O2 (stereo not drawn) | -0.6 | 1.8
CN(Cc1cnn(-c2ccccc2)c1)C(=O)c1ccc(NS(=O)(=O)c2ccccc2)cc1 | -2.6 | -2.1
Fc1ccc(-c2cn(-c3ccccc3)c3[n+]2CCCS3)cc1 | 8.7&5.2 | 4.5&-0.3
S=C1NC2/C(=C\c3ccccc3)CCCC2C(c2ccccc2)N1 (stereo not drawn) | -1.8 | -0.4
O=c1[nH]c(CSc2ncnc3sccc23)nc2ccsc12 | 8.6 | 10.6
Cc1cccn2c(CNCCc3ccccc3Cl)c(C(=O)N3CCCCC3)nc12 | 1.6&-15.5 | 4.5&-10.3
Cc1ccc(C)c(-c2csc(NC(=O)C3CCS(=O)(=O)C3)n2)c1 (stereo not drawn) | 13.2&-5.3 | 16.4&-1.9
Cc1nn(CN2CCN(S(=O)(=O)c3cccnc3)CC2)c(=S)n1C | -6.7 | -9.6
COc1cc(C)c(C)cc1S(=O)(=O)N1CCN(c2ccc(C)c(Cl)c2)CC1 | 1.4 | 0.8
COCCc1nc2ccc(C(=O)N3CCCC3c3nc4ccc(C)cc4[nH]3)cc2o1 (stereo not drawn) | -0.6 | 4.7
Clc1nnnc2c1sc1nc(N3CCOCC3)c3c(c12)CCCC3 | 10.3 | 17.2
c1ccc(CN2CCC(CCn3ccnc3C3CC3)C2)cc1 (stereo not drawn) | 1.3 | 4.5
COC(=O)CC(NC(=O)CN1CCCCCCC1=O)c1ccc(C)cc1 (stereo not drawn) | 14.9 | 1.5
O=C(NC1CCN(c2ccc(OC(F)F)cc2)CC1)C1CCC1 | 9.1 | 12.1
Cn1ccnc1CNC(=O)CCc1nnc(-c2ccc(-c3ccccc3)cc2)o1 | 0.5 | 4.7
C#CC(O)(c1ccc(OC)cc1)c1ccc(OC)cc1 | -2.1 | -1.4
Cc1ccccc1-c1onc(C)c1C(=O)NC1CC(C)(C)N(C)C(C)(C)C1 | 10.4 | 5.3
CCOC(=O)c1cccc(NC(=O)CSc2nccn3nc(-c4ccc(CC)cc4)cc23)c1 | -3.1 | 0.6
O=C(c1c[nH]c(=O)c(Cl)c1)N1CCOC(COCc2cccc(C(F)(F)F)c2)C1 (stereo not drawn) | 12.0 | 18.3
CCOC(=O)N1CCN(CC(=O)N2N=C(c3ccc(OC)cc3)CC2c2ccc(C)cc2C)CC1 (stereo not drawn) | 18.1 | 18.5
CCn1c(=NC(=O)C2CCCN2S(=O)(=O)c2cccs2)sc2c3ccccc3ccc21 (stereo not drawn) | 0.7 | 1.0
CCc1ccc(S(=O)(=O)NCC2CCN(C(C)C)CC2)s1 | -6.3 | -4.0
CCN(CC)c1ncccc1CNC(=O)C1CCC1 | 15.3 | 23.0
COCCNC(=O)Cn1nc2c(c1NC(=O)C1CC(=O)N(c3ccccc3)C1)CSC2 (stereo not drawn) | 0.9 | -3.8
O=C(Nc1ccc(-n2ccnc2)c(F)c1)c1cncc(Br)c1 | -6.2 | -4.1
Cn1cnnc1SCc1nc(N)nc(N2CCCCC2)n1 | -1.1 | 0.6
N#CCSc1nc(N)c(C#N)c(-c2ccccc2)c1C#N | 6.9 | 13.7
COc1ccc(CCn2c(C)c3c(C)nnc(C)c3c2C)cc1OC | -1.9 | -1.1
Cn1cc(-c2cc3cnc(Nc4cccc(OC(F)(F)F)c4)cc3n2C)cn1 | -4.4 | -2.6

# An excerpt from above in order of length of the SMILES, smallest number first.
Compound | NPYLR7 agonist max-min | NPYLR7 agonist
CCN(CC)c1ncccc1CNC(=O)C1CCC1 | 15.3 | 23.0
Cn1cnnc1SCc1nc(N)nc(N2CCCCC2)n1 | -1.1 | 0.6
C#CC(O)(c1ccc(OC)cc1)c1ccc(OC)cc1 | -2.1 | -1.4
c1ccc(CN2CCC(CCn3ccnc3C3CC3)C2)cc1 (stereo not drawn) | 1.3 | 4.5
N#CCSc1nc(N)c(C#N)c(-c2ccccc2)c1C#N | 6.9 | 13.7
Cc1nc(CC(=O)N2CCCC(O)(CN(C)C)CC2)cs1 (stereo not drawn) | 4.5 | 4.8
O=C(NC1CCN(c2ccc(OC(F)F)cc2)CC1)C1CCC1 | 9.1 | 12.1
Fc1ccc(-c2cn(-c3ccccc3)c3[n+]2CCCS3)cc1 | 8.7&5.2 | 4.5&-0.3
S=C1NC2/C(=C\c3ccccc3)CCCC2C(c2ccccc2)N1 (stereo not drawn) | -1.8 | -0.4
COC(=O)CC(NC(=O)CN1CCCCCCC1=O)c1ccc(C)cc1 (stereo not drawn) | 14.9 | 1.5
Cc1nn(CN2CCN(S(=O)(=O)c3cccnc3)CC2)c(=S)n1C | -6.7 | -9.6
Cc1cccn2c(CNCCc3ccccc3Cl)c(C(=O)N3CCCCC3)nc12 | 1.6&-15.5 | 4.5&-10.3
Cn1ccnc1CNC(=O)CCc1nnc(-c2ccc(-c3ccccc3)cc2)o1 | 0.5 | 4.7
Cn1cc(-c2cc3cnc(Nc4cccc(OC(F)(F)F)c4)cc3n2C)cn1 | -4.4 | -2.6
Cc1ccccc1-c1onc(C)c1C(=O)NC1CC(C)(C)N(C)C(C)(C)C1 | 10.4 | 5.3
COCCc1nc2ccc(C(=O)N3CCCC3c3nc4ccc(C)cc4[nH]3)cc2o1 (stereo not drawn) | -0.6 | 4.7
COCCNC(=O)Cn1nc2c(c1NC(=O)C1CC(=O)N(c3ccccc3)C1)CSC2 (stereo not drawn) | 0.9 | -3.8
CCn1c(=NC(=O)C2CCCN2S(=O)(=O)c2cccs2)sc2c3ccccc3ccc21 (stereo not drawn) | 0.7 | 1.0
CCOC(=O)c1cccc(NC(=O)CSc2nccn3nc(-c4ccc(CC)cc4)cc23)c1 | -3.1 | 0.6
O=C(c1c[nH]c(=O)c(Cl)c1)N1CCOC(COCc2cccc(C(F)(F)F)c2)C1 (stereo not drawn) | 12.0 | 18.3
CN(Cc1cnn(-c2ccccc2)c1)C(=O)c1ccc(NS(=O)(=O)c2ccccc2)cc1 | -2.6 | -2.1
CCOC(=O)N1CCN(CC(=O)N2N=C(c3ccc(OC)cc3)CC2c2ccc(C)cc2C)CC1 (stereo not drawn) | 18.1 | 18.5

# (listing goes on)
Compound | NPYLR7 agonist max-min | NPYLR7 agonist
CN(C)S(=O)(=O)c1ccc(Cl)c(C(=O)N(Cc2ccc(F)cc2)C2CC2)c1 | -7.4 | -5.0
Cc1nccc(-c2cccc(NC(=O)c3ccc(-n4nc(-c5ccc(Cl)cc5)cc4N)cc3)c2)n1 | -15.5 | -11.5
NC1(C(=O)N2CCCC(c3ccc(Cl)cc3)C2)CC1 (stereo not drawn) | -10.5 | -6.6
c1ccc(-c2ccc(-c3nccn3CCCn3ccnc3)cc2)nc1 | -1.5 | -0.3
Cc1ccc(Cl)c(NC(=O)c2cccc(CN3CCC[C@@H]3C(N)=O)c2)c1 | -3.2 | -1.2
CC(SCc1ccc(Br)cc1)C(=O)Nc1nc(CC(N)=O)cs1 (stereo not drawn) | 7.9 | 9.1
Cc1c(Br)cc(C(=O)N(CC#N)CC#N)c(C)c1C | 13.3 | -1.5
Cn1cccc1CNCC1CCCn2cc(C(C)(C)C)nc21 (stereo not drawn) | 0.1 | -0.3
Cc1ccc(-c2ccc(C(=O)NCC(O)c3ccc(C)o3)c(F)c2)cc1 (stereo not drawn) | -2.5 | -0.4
CCCCCc1ccc(C(=O)N2CCN(C(=O)CSc3nnc(-c4ccc(C)cc4)n3-c3ccc(OC)cc3)CC2C)cc1 (stereo not drawn) | 9.7 | 0.4
Nc1ccc(S(=O)(=O)Nc2ccnn2-c2ccccc2)cc1 | -23.1&-39.4&-8.8 | -12.7&5.3&-2.9
CCOC(=O)C1(CCOc2ccccc2)CCCN(C(=O)C(=O)c2ccccc2)C1 (stereo not drawn) | 1.4 | 4.7
Cc1c(N2CCOCC2)c(C)n(Cc2ccccc2F)c1C(=O)Nc1cccc(F)c1 | 25.7 | 27.3
COc1ccc(C(NC(=O)C2CCN(CCc3ccc(Br)cc3)CC2)c2ccccn2)cc1 (stereo not drawn) | 9.4 | 16.2
CCOc1ccc(N(C(C)=O)C2=NC(=O)/C(=C/c3ccccc3O)S2)cc1 | -2.8 | 1.1
CC(Cl)C(=O)Nc1nnc(SCC(=O)c2cccc(C(F)(F)F)c2)s1 (stereo not drawn) | 19.8 | 14.3
CCCCOc1ccc(S(=O)(=O)NC(=O)C2(C)CCN2C(=O)C/C=C/c2ccccc2)cc1 (stereo not drawn) | 4.3 | 4.7
COc1ccc(CN2C(=O)CSC2=Nc2cccc(Cl)c2C)cc1OC | -6.8 | -2.9
O=C(N1CCN(Cc2nnnn2-c2ccc(Cl)cc2)CC1)C12CC3CC(CC(C3)C1)C2 | -0.8 | -1.0
CCOC(=O)C1CCCN(c2cc(=O)n(C3CCCCC3)c(=O)[nH]2)C1 (stereo not drawn) | 7.5 | 1.2
c1ccc(-c2ncn(CCCOc3cccnc3)c2-c2ncc[nH]2)cc1 | -2.0 | 2.3
Cc1cccc(C(=O)Nc2ccc3sc(C)nc3c2)c1 | -14.6 | -8.7
N#CCCn1cc(C(=O)Nc2nccs2)c(-c2cc3ccccc3o2)n1 | -7.1 | -3.8
N#Cc1c(Cl)nsc1NCCCCN1CCCCC1=O | 7.1 | 9.3
Cc1cccc(C)c1NC(=O)CNC(=O)CSc1nnc(-c2ccc[nH]2)o1 | -0.6 | -6.0
O=C(CN1CCc2ccccc21)Nc1cc(Cl)c(Cl)cc1Cl | -6.6 | -3.3
CCC(=O)N1CCN(C(=O)c2cn(CCCOC)cc3c(=O)n(-c4ccccc4)nc2-3)CC1 | -2.3 | -1.1
CNC(=O)[C@@H]1C[C@@H](N)CN1C(=O)c1ccoc1COc1ccc(C)cc1 | 3.3 | 0.2
CC(NC(=O)c1ccc(-n2cccc2)c(F)c1)C(=O)N1CCOCC1 (stereo not drawn) | -0.6 | 0.3
CC(C)c1nc(N(C)S(C)(=O)=O)nc(-c2ccc(F)cc2)c1C=CC(O)CC(O)CC(=O)O (stereo not drawn) | -11.4 | -5.0
CCNC(=O)[C@@H]1C[C@H](n2cc(CN(CC)CC)nn2)CN1 | 4.0 | 6.5
CCc1[nH]c2ccc(CNC(=O)C3CCCN(C(N)=O)C3)cc2c1C (stereo not drawn) | 4.1 | 7.0
